# Screening data: PubChem BioAssay, several laboratories
# Ecoli growth: blocks Escherichia coli growth; OD600, 23 h; hits give low values; OD600 absorbance (no concentration beside the values); 0.21% of 330,000 active; AID 1053175;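 active means OD600 absorbance below the run mean of sample wells minus 3.6 SD, in any replicate, cut at about 0.56 in these data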;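 further: stock transfer was 300 nL into about 60 µL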
# Vif TR-FRET: HIV-1 Vif–A3G interaction blockers – biochemical, TR-FRET, GST-Vif 1-94, biotin-A3G peptide, dose response retest, primary screen (AID 1117319); 0.57% of 260,000 active; TR-FRET GST-Vif / biotin-A3G peptide binding; higher % means a stronger effect; test concentration not given here; strong numbers were not always called active; inhibition, %; hits with a dose series show IC50 in µM;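 active means above the screen mean plus three standard deviations and confirmed in dose response; inconclusive means results disagree or hit not tested in dose response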;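 further: Vif residues 1-94 fused to GST binding biotinylated APOBEC3G peptide 110-148; 0% = full assay without inhibitor and 100% = GST in place of GST-Vif; retest series ran down from 100 µM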
# FGF22 binding: FGF22 (human) thermal shift binding; 1.5% of 340,000 active; Q9HCT0; calls only at 9.99 µM; recombinant FGF22 thermal shift, SYPRO orange fluorescence; percent of sucrose octasulfate shift, DMSO zero;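 active means melting point raised past a set limit in the mean and every replicate; inconclusive means no clear call; three in four hits are not shown here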
# Target sequence (Q9HCT0 whole entry, looked up): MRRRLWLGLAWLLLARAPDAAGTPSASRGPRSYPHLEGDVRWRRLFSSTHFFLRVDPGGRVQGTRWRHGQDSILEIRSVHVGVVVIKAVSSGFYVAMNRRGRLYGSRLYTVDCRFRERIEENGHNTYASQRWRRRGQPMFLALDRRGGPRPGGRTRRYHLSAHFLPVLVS
# rRNA inh HTS: inhibits bacterial ribosomal RNA function over humanized ribosomes. E. coli WT GFP vs humanized-ribosome RFP mutants, fluorescence, 24 h; hits give low values; DMSO median 0, no signal -100. GFP signal change (wild-type ribosome), % (no concentration beside the values). 1.6% of 350,000 active;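 active means significant combined selectivity score with lowered wild-type GFP, culture density cut under 30%, mutant RFP and density less affected; inactive means any of these conditions unmet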; further: one replicate is shown; some compounds called inactive have numbers as strong as hits
# ALR inh: inhibitors of human sulfhydryl oxidase ALR | 3.8% of 290,000 active | P55789 | inhibition, % (concentration not given with the values) | purified ALR, DTT oxidation, H2O2 HRP-luminol luminescence;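 active means mean and each replicate at 75% or more; inconclusive means only one of the two met; inactive means neither met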;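 further: stock transfer was 7.5 nL into about 7.5 µL; 0% = neutral wells and 100% = wells with inactivated enzyme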
# Target sequence (P55789 whole entry, looked up): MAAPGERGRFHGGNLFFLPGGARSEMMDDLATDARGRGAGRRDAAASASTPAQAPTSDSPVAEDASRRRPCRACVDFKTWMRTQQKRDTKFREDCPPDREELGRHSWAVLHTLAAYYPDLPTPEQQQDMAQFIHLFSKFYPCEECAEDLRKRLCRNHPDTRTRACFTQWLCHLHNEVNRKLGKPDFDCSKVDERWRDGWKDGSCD
# HNF4A DNA FP: change in binding of human HNF4 alpha to DNA. P41235. 0.3% of 360,000 active. HNF4a-FITC DNA binding, fluorescence polarization, 1 h. AID 1224865. activity change, % at 10 µM; in the data active means activity change above about 30%, passing the limit was not always enough;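 further: controls were the assay level and a saturating level of protein; the project sought stronger binding though the title names inhibitors; some compounds called inactive have numbers as strong as hits; positive values seem to mean higher polarization but the record does not say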
# Target sequence (P41235 whole entry, looked up): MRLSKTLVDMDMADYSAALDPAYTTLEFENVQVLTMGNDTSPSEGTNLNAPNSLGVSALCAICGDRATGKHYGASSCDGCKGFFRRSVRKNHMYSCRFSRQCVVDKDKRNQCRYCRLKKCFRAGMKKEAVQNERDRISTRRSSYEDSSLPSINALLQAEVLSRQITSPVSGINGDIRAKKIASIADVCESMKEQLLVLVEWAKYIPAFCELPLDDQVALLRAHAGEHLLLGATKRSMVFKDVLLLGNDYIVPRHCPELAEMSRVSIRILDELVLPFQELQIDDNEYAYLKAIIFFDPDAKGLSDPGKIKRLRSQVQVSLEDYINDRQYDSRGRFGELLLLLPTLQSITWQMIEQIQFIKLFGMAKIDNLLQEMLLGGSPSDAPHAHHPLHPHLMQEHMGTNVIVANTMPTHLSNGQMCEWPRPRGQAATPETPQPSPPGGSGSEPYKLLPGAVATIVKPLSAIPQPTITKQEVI
# MLL AF4-AF9 inh: blocks AF4 peptide binding to human AF9. AlphaScreen, biotin-AF4 peptide binding to FLAG-AF9. inhibition, % at 10 µM. 0.47% of 350,000 active. AID 651704;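 active means every replicate reaching a set inhibition limit, whatever the replicate mean, cut at about 25% in these data; inconclusive means mean inhibition reaches that limit but some replicates miss it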;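 further: 0% = plate neutral control median and 100% = total signal loss; the record names both 10 and 1 µM as test concentration; the first replicate is given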
# rRNA inh HTS OD600: second read-out of rRNA inh HTS, no call of its own (marks repeat the call); OD600 change, %; measured here: OD600 growth;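 optical density of the mix in the first replicate; 0 = DMSO median and -100 = no signal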
# rRNA inh HTS RFP: also measured in rRNA inh HTS; calls as there; RFP signal change, %; measured here: RFP humanized mutant strains;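 first replicate; 0 = DMSO median and -100 = no signal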
# Numbers without * were called inactive; i = inactive; ? = inconclusive; / = not tested or not shown; + = active, no number; & = joins results of further samples. Only part of the results is shown. The share of hits here may be higher or lower than overall.
SMILES,Ecoli growth,Vif TR-FRET,FGF22 binding,rRNA inh HTS,rRNA inh HTS OD600,rRNA inh HTS RFP,ALR inh,HNF4A DNA FP,MLL AF4-AF9 inh
O=C(/C=C/c1ccc2c(c1)OCO2)c1ccc[nH]1,0.64,2%,/,/,/,/,22,-0.7,/
CCOc1ccc(CCN2C(=O)C(=O)N([C@@H](Cc3ccc(O)cc3)CN3CCC[C@H]3CN3C(=O)C(=O)NC[C@@H]3Cc3ccccc3)C[C@@H]2Cc2ccc(O)cc2)cc1,/,/,i,-1,15,5.3,/,-3.5,0.8
Cc1ccc(NC(=O)CN2CCN(Cc3ccccc3)CC2)c(Br)c1,0.64,-10%,i,-23*,-17*,0.4*,0,0.9,7.1
CCOC(=O)c1c(NC(=O)CN2CCN(c3cccc(Cl)c3)CC2)sc(C)c1C,0.73,/,i,7,6,-5.1,/,-0.7,4.5
C[C@@H]1CN([C@H](C)CO)C(=O)c2cc(NS(=O)(=O)c3cccs3)ccc2O[C@@H]1CN(C)C(=O)Nc1ccccc1,/,/,i,-1,1,-0.1,/,/,-3.1
Cc1ccc(S(=O)(=O)Nc2cccc3c2O[C@H](CN(C)CC2CC2)[C@H](C)CN([C@H](C)CO)C3=O)cc1,/,/,i,3,8,-2.2,/,/,0.1
COc1ccc(NC(=O)C2Cc3ccccc3CN2C(=O)c2ccco2)cc1 (configuration not stated),0.64,9%,i,0,3,-1.0,6,5.4,0.8
O=C(C[C@@H]1C=C[C@@H](NC(=O)NC2CCCC2)[C@@H](CO)O1)NCc1ccc(F)cc1,/,/,i,0,0,0.6,/,/,-2.5
O=C(NCc1ccco1)C(=O)NCC1OCCCN1S(=O)(=O)c1ccccc1 (configuration not stated),0.68,11%,/,/,/,/,5,0.9,/
COc1ccc(-c2cc(C(F)F)n3ncc(C(=O)N4CCSCC4)c3n2)cc1,0.66,5%,/,/,/,/,-16,2.1,/
C[C@@H]1CCCCO[C@@H](CN(C)S(C)(=O)=O)[C@@H](C)CN([C@H](C)CO)C(=O)c2cc(NC(=O)Nc3cccc4ccccc34)ccc2O1,/,/,i,1,4,-2.3,/,/,-1.9
O=C1Nc2ccccc2N(O)N1c1cc(-c2ccccc2Cl)no1,0.72,5%,/,/,/,/,20,0.5,/
O=C(Nc1nccs1)C1CCCN1S(=O)(=O)c1cccc2cccnc12 (configuration not stated),0.76,-5%,i,-4,1,-1.3,-31,3.1,-9.5
C[C@H](CO)N1C[C@H](C)[C@H](CN(C)C(=O)NC2CCCCC2)Oc2c(NS(=O)(=O)c3ccc(F)cc3)cccc2C1=O,/,/,i,-8,6,2.8,/,/,1.2
O=C(NCCc1ccc(F)cc1)c1ccc2c(=O)n3c(nc2c1)CCC3,0.65,4%,i,-5,-8,-2.4,-1,-0.2,-0.2
COC(=O)C1=C(C)N(Cc2ccc(C)cc2)C(=O)/C1=C\c1ccc(O)c(OC)c1,0.71,12%,/,/,/,/,-3,-1.0,/
C[C@@H]1CN([C@H](C)CO)C(=O)c2cc(C3=CCCC3)cnc2O[C@H]1CN(C)C(=O)C1CCOCC1,/,/,i,1,5,0.6,/,/,-2.1
O=C(CSc1nc2[nH]ncc2c(=O)[nH]1)N1CCCC1,0.71,7%,/,/,/,/,-6,-1.7,/
O=C(C[C@@H]1CC[C@@H](NC(=O)Nc2ccccc2F)[C@@H](CO)O1)NCc1ccc(Cl)cc1,/,/,i,-5,-9,1.2,/,/,1.1
Oc1c(Br)cc(Br)cc1C=NCc1ccccc1,0.66,-9%,i,-13,-9,-2.2,-9,0.5,2.9
COc1cc(C(=O)NC(=S)Nc2ccccc2[N+](=O)[O-])cc(OC)c1OC,0.7,-5%,+,7,7,2.4,11,0.2,1.5
O=C(NCC1CCN(C(=O)C(=O)c2cc3ccccc3o2)CC1)c1ccc2c(c1)OCCCO2,/,/,i,-17*,-22*,-0.2*,/,/,1.6
Cc1ccc(C(=O)c2c(C)oc3c2C(=O)C(=O)c2ccccc2-3)cc1,0.72,?,/,/,/,/,3,-1.3,/
CN(C)S(=O)(=O)c1cccc(C(=O)NCCOC(=O)c2cc(F)c(F)cc2Cl)c1,0.66,/,i,/,/,/,-15,2.0,0.5
Cc1nc(SCC(=O)NCc2ccc3c(c2)OCO3)nc(C)c1C,0.67,/,i,0,0,-1.6,/,2.5,0.5

# Carrying on:
SMILES,Ecoli growth,Vif TR-FRET,FGF22 binding,rRNA inh HTS,rRNA inh HTS OD600,rRNA inh HTS RFP,ALR inh,HNF4A DNA FP,MLL AF4-AF9 inh
COc1ccc(N/C=C/C(=O)c2ccc(Cl)cc2)cc1,0.69,16%,/,/,/,/,-8,-0.8,/
C[C@H](CO)N1C[C@H](C)[C@@H](CN(C)C(=O)C2CC2)Oc2ncc(C#Cc3ccccc3F)cc2C1=O,/,/,i,0,9,-2.0,/,/,-0.5
C[C@@H]1CN([C@H](C)CO)C(=O)c2cc(NC(=O)Nc3cccc4ccccc34)ccc2O[C@H]1CN(C)C,/,/,i,5,10,-1.9,/,/,-0.2
Cc1ccc(C(=O)Oc2ccc(N3C(=O)CCC3=O)c(C)c2)cc1,0.65,?,i,15,19,1.2,-13,-2.0,1.5
O=C(c1ccccc1)N1CCN(C(=O)c2cccnc2)CC1,0.66,/,i,19,21,3.3,-1,-0.8,-0.1
C[C@@H]1CN([C@H](C)CO)C(=O)Cc2cc(N(C)C)ccc2O[C@@H]1CN(C)S(=O)(=O)c1ccccc1,/,/,i,2,2,2.2,/,/,0.8
Cc1cc(C(F)(F)F)n2nc(-c3cnn(C)c3C(F)(F)F)cc2n1,0.7,?,/,/,/,/,3,2.6,/
Cc1cccc(C)c1N1C(=O)c2ccccc2NC(=O)C1C(=O)NCCc1ccccc1F (configuration not stated),/,/,i,-1,5,5.4,/,-1.2,1.2
O=C(NC1CC1)C1=C[C@@H](c2ccccc2)C[C@@H](OCCCCO)O1,/,5%,i,1,5,-7.1,/,-1.5,-6.6
Cc1ccc[n+](CC(=O)c2ccc(Br)cc2)c1,0.66,/,i,7,9,3.7,-63,5.8,-0.4
CC(=O)Nc1ccc(Nc2ncnc3c2cnn3-c2ccccc2)cc1,0.75,4%,/,/,/,/,-4,3.4,/
CN(C1CCCCC1)S(=O)(=O)c1cccc(C#N)c1,0.68,-1%,i,-11,-5,-1.9,2,-2.5,-3.9
CN(CC(=O)Nc1ccc(F)c(F)c1F)C(=O)CN1C(=O)C2CCCCC2C1=O (configuration not stated),0.71,/,i,16,11,3.5,-1,2.0,-0.8
Cc1cc[n+](-c2[nH]c(=O)sc2/C=N/N=C(\[O-])c2ccncc2)cc1C,/,/,i,9,18,1.4,18,1.4,-47
COC(=O)c1ccc(COC(=O)C2CCN(S(=O)(=O)c3ccccc3C(=O)OC)CC2)cc1,0.71,/,i,-6,-12,-1.3,/,3.4,2.7
C[C@@H]1CCCCO[C@@H](CN(C)C(=O)Nc2ccc3c(c2)OCO3)[C@H](C)CN([C@@H](C)CO)C(=O)c2cc(NC(=O)Nc3ccc(F)cc3)ccc2O1,/,/,i,3,16,-1.8,/,/,-3.5
COc1ccc(C#Cc2ccc3c(c2)[C@H]2[C@H](CCN2S(=O)(=O)c2ccccc2C)[C@@H](CO)N3C)cc1,/,/,i,0,22,0.7,/,/,-2.0
CN(C)CC(=O)Nc1ccc2c(c1)[C@@H]1C[C@H](CC(=O)N(C)C)O[C@@H](CO)[C@@H]1O2,/,/,+,2,-7,-3.6,/,/,-2.5
CCOc1ccc(C(=O)NC(C)(C)CC)cc1,0.7,-7%,i,8,-8,2.2,0,-0.7,-16
CC(C)(C)S(=O)(=O)N1C[C@H]2CC(=O)C=C2[C@@H]1CCO,/,/,i,7,14,-3.5,/,/,-2.3
CCC(=O)N(C)C[C@H]1Oc2ncc(C3=CCCC3)cc2C(=O)N([C@H](C)CO)C[C@H]1C,/,/,i,2,9,-2.3,/,/,-4.2
COc1cccc(-c2ccc3c(c2)[C@@H]2[C@@H](CCN2S(=O)(=O)c2cccc(OC)c2)[C@H](CO)N3)c1,/,/,i,-2,-2,-0.3,/,/,-1.3
COc1ccc(S(=O)(=O)Nc2ccc(S(=O)(=O)Nc3cc(C)nc(C)n3)cc2)cc1OC,0.68,/,i,7,6,-1.7,-3,1.3,1.1
O=S(=O)(NC1CCCC1)c1ccc(S(=O)(=O)N2CCCN(Cc3ccccc3)C2)cc1,0.71,7%,i,4,-24,21,/,-0.1,5.8
Cc1cccc(C2c3[nH]c4ccccc4c3CCN2C(=O)Cc2n[nH]c(C)n2)n1 (configuration not stated),0.71,-12%,i,-11,-15,-1.6,-9,-4.3,0.2

# Arranged by length of the SMILES (smallest number first): some entries from above
SMILES,Ecoli growth,Vif TR-FRET,FGF22 binding,rRNA inh HTS,rRNA inh HTS OD600,rRNA inh HTS RFP,ALR inh,HNF4A DNA FP,MLL AF4-AF9 inh
Cc1ccc[n+](CC(=O)c2ccc(Br)cc2)c1,0.66,/,i,7,9,3.7,-63,5.8,-0.4
COc1ccc(N/C=C/C(=O)c2ccc(Cl)cc2)cc1,0.69,16%,/,/,/,/,-8,-0.8,/
Cc1cccc(C)c1N1C(=O)c2ccccc2NC(=O)C1C(=O)NCCc1ccccc1F (configuration not stated),/,/,i,-1,5,5.4,/,-1.2,1.2

# More records
SMILES,Ecoli growth,Vif TR-FRET,FGF22 binding,rRNA inh HTS,rRNA inh HTS OD600,rRNA inh HTS RFP,ALR inh,HNF4A DNA FP,MLL AF4-AF9 inh
CC(OC(=O)c1ccc(Br)o1)C(=O)NCC1CCCCC1 (configuration not stated),0.7,/,i,4,13,2.0,-7,-2.2,1.0
CC1CN(C)C(C)c2c1oc1ccc(N)cc21 (configuration not stated),0.66,/,i,1,8,3.9,-128,-3.6,35*
COc1ccc(N(C(=O)c2ccncc2)S(=O)(=O)c2cccc([N+](=O)[O-])c2)cc1,0.68,/,i,-5,-1,-0.4,6,-2.3,1.3
COc1ccccc1S(=O)(=O)N(C)C[C@H]1Oc2cc(C#CCC3CCCC3)ccc2S(=O)(=O)N([C@H](C)CO)C[C@H]1C,/,6%,i,9&6,16&6,8.0&-0.1,/,-5.3,1.0&-0.6&4.5
COc1ccccc1NC(=O)Nc1ccc2c(c1)C(=O)N(C)C[C@H](OC)[C@H](C)CN[C@H](C)CO2,/,/,i,0,2,-0.6,/,/,1.1
COC(=O)CCn1nnc(-c2cccs2)n1,0.64,-3%,/,/,/,/,5,-1.1,/
Cc1ccc(C(C)NC(=O)c2c(-c3ccccc3)noc2C)cc1C (configuration not stated),0.7,-5%,i,-25,-28,-0.4,-7,3.8,-1.7
CCCC#Cc1ccc2c(c1)[C@H]1[C@H](CCN1S(=O)(=O)c1cccc(F)c1)[C@H](CO)N2C,/,/,i,-9,-25,6.4,/,/,-1.8
O=C(Nc1ccc(F)cc1F)c1cc2ncc(CCCl)cn2n1,0.72,26%,/,/,/,/,/,-0.6,/
Cc1cc(C)cc(N(C(=O)c2csnn2)C(C(=O)NC(C)(C)C)c2ccccn2)c1 (configuration not stated),0.64,-8%,i,7,10,-1.1,-1,-0.8,-1.1
Cc1ccc(-c2cc(C(=O)N3N=C(C(F)F)CC3(O)C(F)F)c3ccccc3n2)cc1C (configuration not stated),0.73,0%,/,/,/,/,-5,3.0,/
O=C(C[C@@H]1CC[C@H]2[C@@H](COC[C@H](O)CN2C(=O)c2ccccc2F)O1)NCc1ccc(Cl)cc1,/,/,i,5,6,33,/,/,-0.1
O=C(CSc1nnc(CCCO)n1-c1ccccc1)NCCc1ccccc1,0.67,74%,/,/,/,/,-1,3.4,/
COC(=O)/C(=N/Nc1ccc(C)cc1)N1CCCc2ccccc21,/,/,i,4,6,-1.7,99*,2.5,17
CNc1nnc(C(F)(F)F)s1,0.67,-4%,i,7,0,-1.6,-5,-1.9,-2.2
